DUX4 inh: blocks DUX4-driven transcriptional activation; 293T-iDUX4 ZSCAN4-Gaussia luciferase reporter, 24 h; hits give low values; activity change, negative = inhibition, % (test concentration not listed); 37,000 tested, 0.8% active;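 active means -10% or lower and over 25 points stronger than a control reporter; inconclusive means -10% or lower with a smaller gap; inactive means above -10%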;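 further: 0% = median of neutral control wells and -100% = median of positive control wells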
DUX4 inh difference: also measured in DUX4 inh; calls as there; Gaussia minus Italica difference, %; measured here: selective DUX4 reporter inhibition;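 worked out from the two reporters; negative = selective loss of the DUX4 reporter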
DUX4 inh control: second read-out of DUX4 inh, no call of its own (marks repeat the call); activity change, negative = inhibition, %; measured here: Italica tet-on control reporter;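 0 = neutral control and -100 = positive control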
An asterisk follows results filed as active; ? = inconclusive; nt = no result given. The list is partial (hit frequency here may not be typical).

SMILES	DUX4 inh	DUX4 inh difference	DUX4 inh control
CCNC(=O)[C@H]1[C@H](CO)[C@H]2Cn3c(ccc(/C=C/c4ccccc4)c3=O)[C@@H]1N2C(=O)C1CCCC1	0.5	-0.8	1.3
Cc1cccc(-c2ccc([C@@H]3[C@H](CO)N4CCCCN(C(=O)NC(C)C)C[C@@H]34)cc2)c1	-4.3	-2.8	-1.5
O=C(C1CCC1)N1CC[C@@H]2[C@H](CO)Nc3ccc(C4=CCCCC4)cc3[C@@H]21	-6.8	-8.7	1.8
CCC(=O)N1CCC2(CC1)CN(C(=O)c1cnccn1)[C@H](CO)c1c2c2ccc(OC)cc2n1C	22.6	13.4	9.2
Cc1noc(C)c1S(=O)(=O)N(C)C[C@@H]1OCCCC[C@H](C)Oc2ccc(NC(=O)c3ccccc3)cc2C(=O)N([C@H](C)CO)C[C@H]1C	-0.6	1.4	-2.1
COc1ccc2c3c([nH]c2c1)[C@H](CO)N(Cc1cccnc1)CC31CCN(C(=O)CN(C)C)CC1	10.2	7.0	3.2
C[C@H]1CN([C@@H](C)CO)C(=O)c2cccc(N(C)C)c2O[C@H]1CN(C)C(=O)Nc1ccc(F)cc1	1.0	-3.4	4.4
C[C@@H]1CN([C@@H](C)CO)C(=O)c2cccc(NC(=O)CCCCCC(=O)Nc3ccccc3N)c2O[C@@H]1CN(C)S(=O)(=O)c1cn(C)cn1	0.4	-6.5	6.8
CCS(=O)(=O)N1[C@H](C#N)[C@H](c2ccc(C#CC(C)C)cc2)[C@@H]1CO	3.1	0.9	2.2
C[C@H]1CN([C@@H](C)CO)C(=O)c2cc(NC(=O)Nc3cccc4ccccc34)ccc2O[C@H]1CN(C)Cc1ccc(Cl)c(Cl)c1	-0.4	-3.6	3.2
Cc1ccc(S(=O)(=O)N2C[C@@H](O)COC[C@@H]3O[C@@H](CC(=O)N[C@H]4CCN(Cc5ccccc5)C4)CC[C@H]32)cc1	-2.6	1.9	-4.5
CN1c2ccc(C#Cc3cccnc3)cc2[C@@H]2[C@@H](CCN2S(=O)(=O)c2cccc(F)c2)[C@@H]1CO	-9.2	-0.2	-8.9
O=C(C[C@@H]1CC[C@H]2[C@@H](COC[C@H](O)CN2C(=O)Nc2cccc(F)c2)O1)NCc1ccccc1Cl	-6.6	-10.3	3.7
CC(=O)N1CC[C@@H]2[C@H]1c1cc(-c3ccc(C#N)cc3)ccc1N(C)[C@@H]2CO	-3.8	-5.1	1.3
CCC(=O)N1CC2(C1)CN(C(=O)c1ccccn1)[C@@H](CO)c1c2c2ccc(OC)cc2n1C	14.0	14.3	-0.2

5 compounds already listed, ordered by their value in DUX4 inh, largest number first:
| compound | DUX4 inh |
| --- | --- |
| CCC(=O)N1CCC2(CC1)CN(C(=O)c1cnccn1)[C@H](CO)c1c2c2ccc(OC)cc2n1C | 22.6 |
| C[C@@H]1CN([C@@H](C)CO)C(=O)c2cccc(NC(=O)CCCCCC(=O)Nc3ccccc3N)c2O[C@@H]1CN(C)S(=O)(=O)c1cn(C)cn1 | 0.4 |
| Cc1ccc(S(=O)(=O)N2C[C@@H](O)COC[C@@H]3O[C@@H](CC(=O)N[C@H]4CCN(Cc5ccccc5)C4)CC[C@H]32)cc1 | -2.6 |
| O=C(C[C@@H]1CC[C@H]2[C@@H](COC[C@H](O)CN2C(=O)Nc2cccc(F)c2)O1)NCc1ccccc1Cl | -6.6 |
| O=C(C1CCC1)N1CC[C@@H]2[C@H](CO)Nc3ccc(C4=CCCCC4)cc3[C@@H]21 | -6.8 |

(cont.)
SMILES	DUX4 inh	DUX4 inh difference	DUX4 inh control
Cc1cccc(-c2ccc([C@H]3[C@@H](CO)N4CCCCN(S(=O)(=O)c5ccccc5F)C[C@@H]34)cc2)c1	-3.1	-10.2	7.1
O=C(C[C@H]1CC[C@H]2[C@@H](COC[C@@H](O)CN2C(=O)c2ccncc2)O1)NCc1cccc(F)c1	0.7	8.0	-7.3
COc1ccc2c3c(n(C)c2c1)[C@H](CO)N(Cc1ccc2c(c1)OCO2)CC31CCN(C(=O)c2ccc3c(c2)OCO3)CC1	?	nt	nt
CC(=O)NC[C@@H]1[C@@H](c2ccc(C#Cc3ccccc3F)cc2)[C@@H](CO)N1C(C)=O	-0.4	1.7	-2.1
COc1cccc(S(=O)(=O)N2C[C@@H](O)COC[C@@H]3O[C@@H](CC(=O)N4CCOCC4)CC[C@H]32)c1	6.7	3.0	3.7
CO[C@H]1CN(C)C(=O)c2cc(NS(=O)(=O)c3cccc(F)c3)ccc2OC[C@H](C)N(Cc2cc(F)ccc2F)C[C@H]1C	?	nt	nt
C[C@@H]1CN([C@H](C)CO)S(=O)(=O)c2ccc(C#CC3CCCCC3)cc2O[C@@H]1CN(C)Cc1cccnc1	3.6	0.7	2.9
COc1ccccc1NC(=O)N1[C@H](C#N)[C@H](c2ccccc2)[C@H]1CO	-1.9	-1.7	-0.2
C[C@H](O)C#Cc1ccc2c(c1)O[C@H](CN(C)Cc1ccc(-c3ccccc3)cc1)[C@@H](C)CN([C@@H](C)CO)S2(=O)=O	-1.5	-9.1	7.6
Cc1noc(C)c1S(=O)(=O)N(C)C[C@@H]1Oc2ccc(NS(=O)(=O)c3cccs3)cc2C(=O)N([C@@H](C)CO)C[C@@H]1C	3.4	1.0	2.4
O=C(C1CCCCC1)N1CC(=O)N2[C@H](C1)[C@@H](c1ccc(-c3ccccc3F)cc1)[C@@H]2CO	-4.6	1.6	-6.2
CO[C@@H]1CN(C)C(=O)c2cc(NC(=O)NC(C)C)ccc2OC[C@H](C)N(C(=O)C2CCC2)C[C@H]1C	-3.7	-6.3	2.6
COc1ccc2c3c([nH]c2c1)[C@@H](CO)N(C(=O)CC1CC1)CC31CN(C(=O)CC2CC2)C1	5.4	-5.7	11.1
Cc1ccc(-c2ccc(C3[C@H]4CNC[C@@H]3N4S(=O)(=O)c3ccccc3F)cc2)cc1 (stereo partly specified)	12.7	3.7	8.9
CC(C)NC(=O)N(C)C[C@H]1Oc2ccc(NC(=O)c3ccncc3)cc2C(=O)N([C@H](C)CO)C[C@H]1C	1.0	3.7	-2.7
N#C[C@H]1[C@H](c2ccccc2C2=CCCCC2)[C@H](CO)N1C(=O)c1ccccn1	0.1	-4.3	4.4
C[C@@H]1CN([C@@H](C)CO)C(=O)Cc2cc(NC(=O)C3CC3)ccc2O[C@@H]1CN(C)S(=O)(=O)c1cn(C)cn1	-1.8	-1.9	0.2
Cc1cccc(CN(C)C[C@@H]2OCc3cnnn3CCCC(=O)N([C@@H](C)CO)C[C@H]2C)c1	-2.5	-6.9	4.4
COCC(=O)N1[C@@H]2c3ccc(-c4ccncc4)c(=O)n3C[C@@H]2[C@@H](CO)[C@@H]1C(=O)Nc1ccccc1	-5.1	-0.6	-4.5
COCC(=O)N1[C@@H](CO)[C@H](c2ccccc2)C12CN(C(=O)c1cccnc1)C2	15.5	8.1	7.5
CC(C)CC#Cc1ccc([C@@H]2[C@H](CO)N3CCCCN(C(=O)Nc4ccccc4)C[C@@H]23)cc1	?	nt	nt
C/C=C/c1ccc([C@H]2[C@@H](CO)N(C(=O)C3CCC3)[C@@H]2CNC(=O)NC(C)C)cc1	-3.8	-6.0	2.3
CCN1[C@@H]2c3ccc(-c4cccc(OC)c4)c(=O)n3C[C@@H]2[C@@H](CO)[C@@H]1C(=O)OC	2.4	3.9	-1.4
COc1ccccc1-c1ccc2n(c1=O)C[C@@H]1[C@@H](CO)[C@H](C(=O)N3CCCCC3)N(C)[C@H]21	-2.1	-2.9	0.8
OC[C@H]1N[C@@H](CNCC2CCC2)[C@@H]1c1ccc(C2=CCCC2)cc1	-4.2	-4.8	0.5
C[C@@H]1CCCCO[C@@H](CN(C)S(=O)(=O)c2ccccc2)[C@@H](C)CN([C@@H](C)CO)C(=O)c2cc(NS(C)(=O)=O)ccc2O1	-3.6	-3.8	0.2
CCCNC(=O)C[C@@H]1CC[C@H]2[C@@H](COc3ccc(NC(=O)c4cccs4)cc3C(=O)N2C)O1	-4.3	-3.2	-1.1
CN(C)C(=O)[C@@H]1[C@@H](CO)[C@@H]2Cn3c(ccc(C4=CCCC4)c3=O)[C@@H]2N1Cc1ccc2c(c1)OCO2	-1.7	-8.0	6.4
CCCNC(=O)N1C[C@@H]2[C@H](c3ccccc31)[C@H](CO)N2C(=O)NC(C)C	1.3	-2.1	3.4
Cc1noc(C)c1S(=O)(=O)Nc1ccc2c(c1)C(=O)N([C@H](C)CO)C[C@H](C)[C@H](CN(C)C(=O)Nc1ccc3c(c1)OCO3)OCCCC[C@H](C)O2	1.3	-1.7	3.0
COc1cccc(-c2ccc3c(c2)[C@@H]2[C@@H](CCN2C(=O)c2ccccc2F)[C@H](CO)N3C)c1	?	nt	nt
CCC(=O)N1CC2(C1)[C@@H](c1ccc(-c3ccc(C)cc3)cc1)[C@@H](CO)N2S(C)(=O)=O	7.7	5.1	2.6
O=C(C[C@@H]1C=C[C@@H](NC(=O)Nc2ccc(C(F)(F)F)cc2)[C@H](CO)O1)NCc1ccccn1	3.2	2.7	0.5
COCCNC(=O)[C@@H]1[C@@H](CO)[C@@H]2Cn3c(ccc(-c4ccc(F)cc4)c3=O)[C@H]1N2C(=O)NC(C)C	3.0	-1.0	4.0
CN(C)Cc1cn(CC[C@@H]2CC[C@H](NC(=O)Cc3cccnc3)[C@@H](CO)O2)nn1	-0.2	-2.3	2.2
CCCC#Cc1ccc([C@H]2[C@@H](CO)N(C(C)=O)[C@H]2CN(C)S(C)(=O)=O)cc1	-5.2	-0.4	-4.8
CCCC#Cc1ccc([C@@H]2[C@H](CO)N3C(=O)CN(C(=O)c4ccccn4)C[C@@H]23)cc1	-0.7	-1.1	0.4
COCC(=O)N1CC(=O)N2[C@H](CO)[C@@H](c3ccc(C#CCc4ccccc4)cc3)[C@H]2C1	4.1	7.6	-3.6
CC(C)NC(=O)Nc1ccc2c(c1)C(=O)N([C@@H](C)CO)C[C@@H](C)[C@@H](CN(C)C(=O)Nc1ccc(F)cc1)O2	2.5	0.4	2.1
CC(C)NC(=O)N1CC2(C1)[C@H](c1ccccc1)[C@H](CO)N2Cc1cccnc1	4.9	-0.6	5.5
O=C(Cc1ccccc1)N1CC[C@@H]2[C@@H](CO)Nc3ccc(-c4ccccc4F)cc3[C@@H]21	8.5	-11.1	19.6
C[C@@H]1CN([C@H](C)CO)C(=O)c2cc(N(C)C)ccc2O[C@@H](C)CCCCO[C@@H]1CN(C)S(C)(=O)=O	-2.7	-2.0	-0.7
CN1C(=O)c2cc(NC(=O)Nc3ccccc3F)ccc2OC[C@@H]2O[C@@H](CC(=O)NCc3ccc(-c4ccccc4)cc3)CC[C@H]21	2.2	3.3	-1.1
CCNC(=O)[C@H]1[C@H](CO)[C@H]2Cn3c(ccc(-c4ccc(OC)cc4)c3=O)[C@H]2N1Cc1ccccc1	-4.1	0.4	-4.5
C[C@H]1CCCCO[C@@H](CN(C)C(=O)Nc2ccc(C(F)(F)F)cc2)[C@@H](C)CN([C@@H](C)CO)C(=O)c2cc(N(C)C)ccc2O1	-0.7	0.4	-1.1

Limited to DUX4 inh difference and DUX4 inh control (2 entries from above):
Structure,DUX4 inh difference,DUX4 inh control
CCCC#Cc1ccc([C@@H]2[C@H](CO)N3C(=O)CN(C(=O)c4ccccn4)C[C@@H]23)cc1,-1.1,0.4
COCC(=O)N1CC(=O)N2[C@H](CO)[C@@H](c3ccc(C#CCc4ccccc4)cc3)[C@H]2C1,7.6,-3.6

Entries listed so far that contain a Cl atom (2):
SMILES	DUX4 inh	DUX4 inh difference	DUX4 inh control
C[C@H]1CN([C@@H](C)CO)C(=O)c2cc(NC(=O)Nc3cccc4ccccc34)ccc2O[C@H]1CN(C)Cc1ccc(Cl)c(Cl)c1	-0.4	-3.6	3.2
O=C(C[C@@H]1CC[C@H]2[C@@H](COC[C@H](O)CN2C(=O)Nc2cccc(F)c2)O1)NCc1ccccc1Cl	-6.6	-10.3	3.7

(list continues)
SMILES	DUX4 inh	DUX4 inh difference	DUX4 inh control
CO[C@@H]1CN(C)C(=O)c2ccc(NC(=O)C3CCOCC3)cc2OC[C@@H](C)N(Cc2cccnc2)C[C@@H]1C	0.5	-1.6	2.1
Cn1cnc(S(=O)(=O)N[C@@H]2C=C[C@@H](CC(=O)N3CCN(c4ccccc4)CC3)O[C@H]2CO)c1	5.1	2.5	2.7
COCC(=O)N1CC(=O)N2[C@H](C1)[C@H](c1ccc(C#CC3CC3)cc1)[C@@H]2CO	4.2	-1.7	6.0
COCC(=O)N1CCC2(CC1)CN(C(=O)c1ccccn1)[C@H](CO)c1c2c2ccc(OC)cc2n1C	17.1	16.6	0.5
C[C@@H]1CN([C@H](C)CO)C(=O)CCCn2nncc2CO[C@H]1CN(C)C(=O)Nc1ccccc1	4.6	4.7	-0.1
COC(=O)C[C@H]1CC[C@H]2[C@@H](COC[C@@H](O)CN2C(=O)Nc2cccc(F)c2)O1	6.0	0.4	5.6
Cc1cccc(-c2ccc([C@@H]3[C@@H](CO)N4CCCCN(C(=O)c5ccncc5)C[C@H]34)cc2)c1	11.9	-0.3	12.2
COc1ccc(C#Cc2ccc([C@H]3[C@H]4CN(C)CCCCN4[C@H]3CO)cc2)cc1	?	nt	nt
CCCC#Cc1cnc2c(c1)C(=O)N([C@@H](C)CO)C[C@H](C)[C@H](CN(C)C(=O)Cc1ccccc1)O2	1.8	0.1	1.8
C[C@@H]1CN([C@H](C)CO)C(=O)Cc2cc(NC(=O)C3CCCCC3)ccc2O[C@@H]1CN(C)Cc1ccc(Cl)c(Cl)c1	1.4	1.3	0.1
C[C@@H]1CN([C@@H](C)CO)C(=O)c2cc(N(C)C)ccc2O[C@@H](C)CCCCO[C@H]1CN(C)S(=O)(=O)c1cn(C)cn1	-5.0	-2.4	-2.6
CNC[C@H]1OCc2ccccc2-c2ccccc2C(=O)N([C@@H](C)CO)C[C@H]1C	-0.9	-7.3	6.4
CCOC(=O)N(C)C[C@H]1OCc2cnnn2CCCC(=O)N([C@H](C)CO)C[C@@H]1C	-0.3	-2.7	2.4
CC(=O)N1[C@H](CO)[C@@H](c2ccccc2)[C@H]1CNC(=O)CN1CCOCC1	-3.3	2.7	-6.0

Compound activity deposited in PubChem by Broad Institute.
